Ecoli rRNA inh – inhibits bacterial ribosomal RNA function over humanized ribosomes. E. coli WT GFP vs humanized-ribosome RFP mutants, fluorescence, 24 h; hits give low values; DMSO median 0, no signal -100. GFP signal change (wild-type ribosome), % (test concentration not listed). actives 1.6% (n = 350,000). AID 720706;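 active = significant combined selectivity score with lowered wild-type GFP, culture density cut under 30%, mutant RFP and density less affected; inactive = any of these conditions unmet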; also: one replicate is shown; some compounds called inactive have numbers as strong as hits
Ecoli rRNA inh OD600 – further read-out of Ecoli rRNA inh, marked with its call; OD600 change, %; measured here: OD600 growth;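 optical density of the mix in the first replicate; 0 = DMSO median and -100 = no signal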
Ecoli rRNA inh RFP – second read-out of Ecoli rRNA inh, no call of its own (marks repeat the call); RFP signal change, %; measured here: RFP humanized mutant strains;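 first replicate; 0 = DMSO median and -100 = no signal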
* hit, by the source's call; & = joins results of further samples. The list is partial, so the mix of outcomes need not match the whole.

SMILES	Ecoli rRNA inh	Ecoli rRNA inh OD600	Ecoli rRNA inh RFP
COc1ccc(S(=O)(=O)N(C)C[C@@H]2Oc3c(NC(=O)Nc4c(C)noc4C)cccc3C(=O)N([C@H](C)CO)C[C@H]2C)cc1	1.6	4.7	-1.5
OCCNc1ncnc2c1ncn2[C@H]1CN(Cc2cccs2)C[C@@H](CO)O1	23.4	17.2	3.2
Cc1ccc(S(=O)(=O)N2CC[C@H]3[C@@H](CO)N(C)c4ccc(-c5cccc(C#N)c5)cc4[C@H]32)cc1	-2.4	-2.1	2.7
COc1ccc(NC(=O)Nc2ccc3c(c2)C(=O)N([C@@H](C)CO)C[C@H](C)[C@H](CN(C)C(=O)NC2CCCCC2)OCCCC[C@H](C)O3)cc1	-0.9	10.7	-1.7
Cc1ccc(NC(=O)C2(C)CCN2C(C)C)cc1C (stereo unspecified)	8.5	25.9	0.1
Cc1noc(C)c1S(=O)(=O)Nc1ccc2c(c1)C(=O)N([C@H](C)CO)C[C@H](C)[C@@H](CN(C)S(=O)(=O)c1ccccc1)OCCCC[C@H](C)O2	-6.0	-9.7	2.8
C[C@@H]1CN([C@H](C)CO)C(=O)c2cc(C3=CCCC3)cnc2O[C@@H]1CN(C)C(=O)Cc1ccncc1	4.9	5.6	0.6
CCCN1C[C@H](C)[C@H](OC)CN(C)C(=O)c2cc(NC(=O)CC)ccc2OC[C@H]1C	3.8	3.1	-2.5
CO[C@H]1CN(C)C(=O)c2ccc(NS(=O)(=O)c3ccc(Cl)cc3)cc2OC[C@@H](C)NC[C@H]1C	3.1	1.3	1.1
C[C@@H]1CN([C@@H](C)CO)C(=O)Cc2cc(NC(=O)Nc3ccc4c(c3)OCO4)ccc2O[C@@H]1CN(C)Cc1ccccc1	-1.7	-12.5	2.4
Cc1noc(C)c1NC(=O)N(C)C[C@@H]1OCCCC[C@@H](C)Oc2ccc(NS(=O)(=O)c3ccccc3)cc2C(=O)N([C@@H](C)CO)C[C@H]1C	1.2	5.8	0.1
C[C@@H]1CN([C@H](C)CO)C(=O)c2cc(NC(=O)Nc3cccc4ccccc34)ccc2O[C@@H]1CN(C)S(C)(=O)=O	1.7	-3.6	3.3
COc1ccc2c3c([nH]c2c1)[C@H](CO)N(S(C)(=O)=O)CC31CCN(C(=O)c2ccccc2)CC1	0.6	6.1	3.2
C[C@H](CO)N1C[C@H](C)[C@H](CN(C)S(=O)(=O)c2cccs2)Oc2ccc(NS(=O)(=O)c3cn(C)cn3)cc2C1=O	3.5	3.8	-1.6
C[C@@H]1CN([C@H](C)CO)C(=O)Cc2cc(NS(=O)(=O)c3ccc(Cl)cc3)ccc2O[C@@H]1CN(C)Cc1ccc2c(c1)OCO2	-16.6	-40.5	25.8
O=C(NCC[C@H]1CC[C@@H](NC(=O)c2cccnc2)[C@H](CO)O1)Nc1ccc(C(F)(F)F)cc1	-2.9&-59.8	-3.1&-80.9	-2.5&-17.4
O=S(=O)(Cc1ccccc1)N1CCCCN2[C@H](CO)[C@H](c3ccc(-c4ccccc4)cc3)[C@H]2C1	-60.1	-70.5	-14.6
COc1ccc(S(=O)(=O)N2CCC(C(=O)NN3CCCCC3)CC2)cc1	4.2	15.9	0.6
CCNC(=O)[C@@H]1[C@@H](CO)[C@@H]2Cn3c(ccc(-c4ccncc4)c3=O)[C@@H]2N1Cc1cc(F)ccc1F	2.4	8.8	1.1
O=C(N[C@H]1CC[C@@H](CCn2cc(-c3ccccn3)nn2)O[C@H]1CO)c1ccncc1	0.2	1.2	-1.8
C[C@@H]1CN([C@H](C)CO)C(=O)c2cccc(NC(=O)Nc3ccccc3)c2O[C@H]1CN(C)Cc1ccc(C(=O)O)cc1	2.8	-2.2	-2.0
Cc1noc(C)c1S(=O)(=O)N(C)C[C@H]1OCc2cnnn2CCCC(=O)N([C@H](C)CO)C[C@@H]1C	0.3&-0.1	2.9&0.8	8.9&-0.7
O=C(C[C@H]1CC[C@@H](NC(=O)c2ccc3c(c2)OCO3)[C@H](CO)O1)NCc1ccc(F)cc1	-1.9	3.5	2.6
N#C[C@@H]1[C@H](c2ccccc2C2=CCCC2)[C@@H](CO)N1C(=O)c1ccccn1	-5.1	-14.0	-0.3
C[C@H](CO)N1C[C@H](C)[C@H](CN(C)C(=O)Nc2ccc(F)cc2)OCCCC[C@H](C)Oc2ccc(N(C)C)cc2C1=O	-2.6	5.0	0.2
CCC(=O)N1[C@@H]2Cn3c(ccc(/C=C/c4ccccc4)c3=O)[C@H]1[C@@H](C(=O)N1CCOCC1)[C@@H]2CO	-1.4	-2.0	1.3
COc1cccc(NC(=O)Nc2ccc3c(c2)C(=O)N(C)C[C@@H](OC)[C@H](C)CN[C@@H](C)CO3)c1	-4.4	3.9	2.0
Cc1noc(C)c1NC(=O)N(C)C[C@H]1Oc2c(NC(=O)CCC(F)(F)F)cccc2C(=O)N([C@H](C)CO)C[C@@H]1C	-2.5	0.0	4.6
C[C@H](CO)N1C[C@H](C)[C@H](CN(C)C)Oc2c(NS(C)(=O)=O)cccc2C1=O	6.1	25.7	-0.1
Cc1cc(C(=O)Nc2cccc3c2O[C@@H](CN(C)C(=O)Nc2ccc(F)cc2)[C@@H](C)CN([C@H](C)CO)C3=O)n(C)n1	-1.7	8.4	1.0
O=C(C[C@@H]1CC[C@H](NC(=O)Nc2ccc3c(c2)OCO3)[C@H](CO)O1)NCc1ccc(Cl)cc1	-2.1	-0.1	-2.0
CC(C)CC#Cc1ccc([C@H]2[C@H](CO)N3C(=O)CN(C(=O)NC4CCCC4)C[C@@H]23)cc1	12.3	14.6	4.0
C[C@H](O)C#Cc1ccc([C@H]2[C@H]3CN(CC4CC4)CCCCN3[C@H]2CO)cc1	4.6	9.6	0.0
CC1=C(C(=O)N2CCOCC2)CC(CC(=O)NC(c2ccccc2)c2ccccc2)C(=O)N1Cc1ccc(C(C)(C)C)cc1 (stereo unspecified)	10.9	4.1	0.8
O=C(C[C@@H]1CC[C@H]2[C@@H](COC[C@H](O)CN2Cc2ccc(F)cc2)O1)NCc1ccncn1	-0.2	5.4	-1.9
Cc1ccc(S(=O)(=O)NC(=O)C2(C)CCN2C(=O)CCc2ccc(Cl)cc2Cl)nc1 (stereo unspecified)	0.5	0.1	3.0
CCCC#Cc1cnc2c(c1)C(=O)N([C@H](C)CO)C[C@@H](C)[C@@H](CN(C)C(=O)c1cnccn1)O2	9.8	18.4	0.0
CO[C@@H]1CN(C)C(=O)c2cc(NS(=O)(=O)c3ccc(Cl)cc3)ccc2OC[C@H](C)N(C(=O)NC(C)C)C[C@@H]1C	-4.3	-10.8	3.1
CC(C)(C)NC(=O)C(c1ccc(-c2ccccc2)cc1)n1c(=O)c(-c2ccco2)nc2ccccc21 (stereo unspecified)	-0.2	5.5	7.8
COC(=O)C1=C(C)N(Cc2ccc(C(F)(F)F)cc2)C(=NCc2ccc(OC)cc2)NC1c1ccccc1C(F)(F)F (stereo unspecified)	-38.2	-70.5	-5.8

Structures shown so far containing a thiophene ring, fused or not:
SMILES	Ecoli rRNA inh	Ecoli rRNA inh OD600	Ecoli rRNA inh RFP
OCCNc1ncnc2c1ncn2[C@H]1CN(Cc2cccs2)C[C@@H](CO)O1	23.4	17.2	3.2
C[C@H](CO)N1C[C@H](C)[C@H](CN(C)S(=O)(=O)c2cccs2)Oc2ccc(NS(=O)(=O)c3cn(C)cn3)cc2C1=O	3.5	3.8	-1.6

(list continues)
SMILES	Ecoli rRNA inh	Ecoli rRNA inh OD600	Ecoli rRNA inh RFP
C[C@H](CO)N1C[C@H](C)[C@H](CN(C)S(=O)(=O)c2ccccc2)Oc2ccc(NS(=O)(=O)c3cccs3)cc2C1=O	-1.6	-7.9	0.5
C[C@@H]1CCCCO[C@H](CN(C)C(=O)Nc2ccc3c(c2)OCO3)[C@@H](C)CN([C@@H](C)CO)C(=O)c2cc(NC(=O)CCC(F)(F)F)ccc2O1	-5.3	-0.2	-3.5
C[C@@H]1CCCCO[C@@H](CN(C)S(=O)(=O)c2ccccc2)[C@H](C)CN([C@H](C)CO)C(=O)c2cc(NC(=O)Nc3ccc(F)cc3)ccc2O1	-1.0	-8.1	0.3
CC(=O)Nc1ccc(NC(=O)C2(C)Cc3c(-c4cccc(NC(C)=O)c4)ccnc3O2)cc1 (stereo unspecified)	10.7	24.5	-1.4
C[C@H]1CN([C@@H](C)CO)C(=O)c2cc(-c3ccc(F)cc3)cnc2O[C@@H]1CN(C)C(=O)c1ccccc1F	4.0	7.1	-0.5
COc1ccc(-c2cccc(-c3nc(C(=O)O)cc4c3[C@@H](CCO)N([S@](=O)C(C)(C)C)C4)c2)cc1	4.4	-2.8	-2.1
CCCc1cc(NCCOCCO)n2c(nc3ccccc32)c1C#N	-11.6	-8.6	-2.1
C[C@H](NC(=O)C[C@@H]1CC[C@@H]2[C@H](COC[C@H](O)CN2C(=O)Nc2ccccc2)O1)c1ccccc1	0.8	7.0	-1.2
COC(=O)C[C@@H]1CC[C@@H]2[C@@H](COc3ccc(NC(=O)NCc4ccccc4)cc3C(=O)N2C)O1	0.7	4.3	0.2
Cc1noc(C)c1S(=O)(=O)Nc1ccc2c(c1)C(=O)N([C@H](C)CO)C[C@H](C)[C@H](CN(C)S(=O)(=O)c1ccc(Cl)cc1)O2	5.1	4.5	0.1
CN(C)C(=O)C[C@H]1C=C[C@@H](NC(=O)C2CCOCC2)[C@H](CO)O1	1.7	-2.9	-0.2
C[C@@H]1CN([C@H](C)CO)C(=O)c2cc(NC(=O)c3ccccc3)ccc2O[C@@H](C)CCCCO[C@@H]1CN(C)C(=O)Cc1ccccc1	0.2	2.7	-0.7
CS(=O)(=O)N1[C@@H]2c3ccc(-c4ccc(F)cc4)c(=O)n3C[C@H]1[C@H](CO)[C@H]2C(=O)N1CCOCC1	0.7	2.7	-0.4
C[C@@H]1CCCCO[C@H](CN(C)S(=O)(=O)c2ccc(Cl)cc2)[C@@H](C)CN([C@H](C)CO)C(=O)c2cc(NS(=O)(=O)c3cn(C)cn3)ccc2O1	-1.2	0.0	1.2
OC(c1ccc(F)c(F)c1)c1nc(-c2ccc(Cl)cc2)cs1 (stereo unspecified)	-57.4	-78.2	-18.1
CCCCNC(=O)c1nc(C2CCN(S(=O)(=O)c3c(F)cccc3F)CC2)oc1-c1ccccc1	-1.2	22.2	7.5
C=CCCC1CN(Cc2ccc(OC)cc2)S(=O)(=O)c2c(cccc2Sc2ccc(OC)c(OC)c2)O1 (stereo unspecified)	18.0	17.6	3.2
COc1ccccc1CN1[C@@H](CO)[C@@H]2c3ccccc3N(C(=O)C3CCCCC3)C[C@@H]21	-3.8	-9.8	2.1
COC(=O)[C@]12CCCCC=C1N(Cc1ccco1)C(=O)[C@H](CC(=O)N1CCOCC1)C2	20.8	19.7	5.0
CN(C)c1ccc2c(c1)[C@H]1C[C@@H](CC(=O)NCc3ccc(Oc4ccccc4)cc3)O[C@H](CO)[C@H]1O2	-11.8	-56.1	33.8
O=C(Nc1ccc2c(c1)[C@@H]1C[C@@H](CC(=O)N3CCc4ccccc4C3)O[C@@H](CO)[C@@H]1O2)c1cccnc1	-5.3	-13.6	-1.0
O=C(Nc1ccccc1)N1CCCCN2[C@@H](CO)[C@H](c3ccc(C#Cc4cccnc4)cc3)[C@@H]2C1	-10.9	3.3	1.1
C[C@H](CO)N1C[C@H](C)[C@H](CN(C)S(=O)(=O)c2ccc(F)cc2)Oc2ccc(NC(=O)Nc3ccc(F)cc3)cc2C1=O	1.9	1.2	4.5
CN(C)C(=O)C[C@H]1CC[C@@H](NC(=O)C2CC2)[C@H](CO)O1	-0.5	4.7	-0.5
COc1cccc(C(=O)Nc2ccc3c(c2)C(=O)N(C)[C@@H]2CC[C@@H](CC(=O)NCC(F)(F)F)O[C@@H]2CO3)c1	-4.8	-1.2	-1.7
O=C(CCN1CCCCC1)NCC[C@H]1CC[C@H](NC(=O)C2CCCCC2)[C@H](CO)O1	3.8	12.2	-2.8
C[C@@H]1CCCCO[C@@H](CN(C)Cc2ccc3c(c2)OCO3)[C@H](C)CN([C@H](C)CO)C(=O)c2cc(NC(=O)c3ccccc3)ccc2O1	0.6	-4.0	0.1
O=C(c1ccccn1)N1C[C@@H]2[C@H](c3ccccc31)[C@H](CO)N2C(=O)Nc1ccccc1Cl	4.2	6.3	-0.1
C[C@H]1CN([C@@H](C)CO)C(=O)c2ccccc2-c2ccccc2CO[C@H]1CN(C)S(=O)(=O)c1ccccc1C#N	-4.2	-11.0	1.7
CCCNC(=O)Nc1ccc2c(c1)OC[C@H](C)N(Cc1ccc(-c3ccccn3)cc1)C[C@@H](C)[C@H](OC)CN(C)C2=O	-2.9	-5.7	9.3
COc1ccc(S(=O)(=O)Nc2ccc3c(c2)C(=O)N([C@@H](C)CO)C[C@H](C)[C@H](CN(C)Cc2ccc4c(c2)OCO4)O3)cc1	4.0	8.4	2.9
CO[C@@H]1CN(C)C(=O)c2cc(NC(=O)c3ccc(F)cc3)ccc2OC[C@@H](C)N(C(=O)c2ccc(F)cc2)C[C@@H]1C	-7.7	-3.7	0.9
COc1ccc(C(=O)C2CCCN(C(=O)Cn3nc(C)nc3C)C2)cc1F (stereo unspecified)	9.9	18.2	-1.1
CCCN1[C@H](CO)[C@H](c2ccc(C#Cc3ccccc3)cc2)[C@@H]1CNC1CCCC1	-58.9	-82.4	-19.0

Complete entries as entered above. Screens in order: Ecoli rRNA inh | Ecoli rRNA inh OD600 | Ecoli rRNA inh RFP
`C[C@@H]1CCCCO[C@@H](CN(C)Cc2ccc3c(c2)OCO3)[C@H](C)CN([C@H](C)CO)C(=O)c2cc(NC(=O)c3ccccc3)ccc2O1` is listed as 0.6 | -4.0 | 0.1
`O=C(Nc1ccccc1)N1CCCCN2[C@@H](CO)[C@H](c3ccc(C#Cc4cccnc4)cc3)[C@@H]2C1` is listed as -10.9 | 3.3 | 1.1
`COc1ccc(S(=O)(=O)Nc2ccc3c(c2)C(=O)N([C@@H](C)CO)C[C@H](C)[C@H](CN(C)Cc2ccc4c(c2)OCO4)O3)cc1` is listed as 4.0 | 8.4 | 2.9
